Arbovirus anti: blocks arbovirus infection | 200,000 compounds, 0.37% hits | arbovirus infection cell-based antiviral screen | AID 1251 | inhibition, % at 10 µM;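 active = inhibition from about 30%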;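 note: bluetongue infection of BSR cells; cell survival read as ATP light after 72 h; 0% = infected wells without compound and 100% = uninfected wells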
Mtb H37Rv: M. tuberculosis H37Rv growth inhibitors, H37Rv strain (AID 1626); M. tuberculosis H37Rv growth inhibition; higher % means a stronger effect; inhibition, % at 10 µM; hits with a dose series show IC50 in µM; 220,000 compounds, 0.95% hits;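 active = confirmed in a dose series; inconclusive = inhibition above 80% but not taken into the dose series; inactive = below 80% or under 30% at every dose of the series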;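 note: bacteria incubated seven days before Alamar blue readout; 0% = bacteria only wells and 100% = bacteria with antibiotic wells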
Mtb bLac sens: beta-lactam sensitization of Mtb H37Rv. M. tuberculosis H37Rv growth with meropenem, percent inhibition; hits of this screen are not shown here. inhibition, % at 25 µM. 330,000 compounds, 0.27% hits;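 active = about 74% or more and at least 40 points above the plate without the antibiotic, then above 30% in a dose series; inconclusive = first-round hits that could not be retested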;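 note: growth measured after seven days incubation then overnight dye step; 0% = bacteria only wells and 100% = bacteria with antibiotic; twin plates without the antibiotic show which effects depend on it; some results filed as inactive read as strong as hits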
YopH inh: blocks Yersinia enterocolitica YopH tyrosine phosphatase | AID 898 | 140,000 compounds, 0.16% hits | inhibition, %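 (about 10 µM by stock and volumes)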 | fluorescence Ex485/Em525;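 active = inhibition of 50% or more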;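 note: controls were vehicle for no effect and minimum signal wells for full effect; inactives centre near -20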
RecA intein inh: inhibitors of M. tuberculosis RecA intein splicing; inhibition, %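 (about 9 µM by stock and volumes)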; cell-free RecA intein splicing, fluorescence; AID 2221; 290,000 compounds, 0.75% hits; P9WHJ3; in the data active = inhibition above about 30%; inconclusive = no clear call, values can overlap the other calls;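 note: 0% = vehicle wells and 100% = reference inhibitor control wells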
Target sequence (P9WHJ3 whole entry, looked up): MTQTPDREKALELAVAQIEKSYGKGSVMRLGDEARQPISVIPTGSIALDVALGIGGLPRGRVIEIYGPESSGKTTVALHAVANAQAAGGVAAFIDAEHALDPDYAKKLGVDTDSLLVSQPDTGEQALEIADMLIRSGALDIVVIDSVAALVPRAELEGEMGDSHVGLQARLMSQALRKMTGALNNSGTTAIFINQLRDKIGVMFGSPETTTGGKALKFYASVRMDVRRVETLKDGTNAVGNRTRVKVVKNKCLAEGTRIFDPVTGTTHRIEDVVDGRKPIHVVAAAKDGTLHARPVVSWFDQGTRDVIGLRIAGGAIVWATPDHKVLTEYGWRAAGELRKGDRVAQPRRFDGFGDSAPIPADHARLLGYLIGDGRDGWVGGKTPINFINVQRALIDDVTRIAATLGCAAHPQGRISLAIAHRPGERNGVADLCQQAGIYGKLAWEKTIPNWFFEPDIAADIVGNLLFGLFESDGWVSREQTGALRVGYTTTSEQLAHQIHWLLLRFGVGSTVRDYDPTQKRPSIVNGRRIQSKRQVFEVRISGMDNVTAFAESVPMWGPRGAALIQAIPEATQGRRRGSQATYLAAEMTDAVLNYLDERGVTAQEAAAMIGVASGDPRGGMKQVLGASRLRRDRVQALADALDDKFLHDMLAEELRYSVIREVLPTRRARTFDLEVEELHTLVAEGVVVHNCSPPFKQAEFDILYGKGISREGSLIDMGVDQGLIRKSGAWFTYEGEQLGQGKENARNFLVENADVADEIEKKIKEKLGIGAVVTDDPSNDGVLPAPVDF
Arbovirus anti repeat: second read-out of Arbovirus anti, no call of its own (marks repeat the call); inhibition, %; measured here: 10K subset replicate screen; many hits read low in the repeat;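 first of two repeat runs on a subset; 0% = infected and 100% = uninfected wells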
The depositor's hits bear a star; u = inconclusive; x = not tested or not shown. Not all compounds are listed; count on the stated rates, not on these rows.

SMILES	Arbovirus anti	Mtb H37Rv	Mtb bLac sens	YopH inh	RecA intein inh	others
O=C(COC(=O)c1cnccn1)NCCc1ccc(Cl)cc1Cl	3	8%	-2	x	x
c1ccc(CSc2ccc(-c3cccnc3)nn2)cc1	2	4%	-2	x	0.6
Cc1ccc(OCC(=O)N/N=C2\CC(=O)CC(C)(C)C2)c(Br)c1	x	x	2	x	2.0
OCCC1CN(Cc2cc(F)ccc2-n2cccn2)CCN1C1CCCC1 (stereo not given)	x	-11%	0	x	0.4
O=C(Nc1ccc(Br)cc1)C1CC(O)CN1C(=O)Oc1ccccc1 (stereo not given)	x	x	-5	x	-0.1
CS(=O)(=O)CC(=O)Nc1ccc2nc3n(c(=O)c2c1)CCCCC3	x	0%	-9	x	-0.5
CN=c1scc(C)n1/N=C/c1cc(Br)c(O)c(OC)c1	-5	-2%	-3	x	-20
C=CCOCCN1C(=O)C2C(c3ccccc3)C=CC(c3ccccc3)C2C1=O (stereo not given)	14	2%	-5	-7	7.4
COC(=O)/C=C1\S/C(=N\N=C\CC(=O)OC)NC1=O	x	-1%	16	x	4.9
COc1ccc(CC(=O)Nc2ccc3nc(SC)sc3c2)cc1OC	2	u	65	x	2.0
CCOc1ccc(CNC(=O)Nc2ccccc2)cc1	x	x	6	x	-0.1
c1ccc2cc(OCc3nc4ccccc4[nH]3)ccc2c1	4	1%	-1	28	1.4
COc1ccc(C)cc1NC(=O)C(OC(=O)C1CC1)c1ccccc1 (stereo not given)	1	0%	38	x	1.9
COc1ccc([N+](=O)[O-])cc1NC(=O)C(C)N(C)Cc1cccc(OC)c1OC (stereo not given)	4	4%	-5	-15	-1.7
Cc1cccc(N(C)S(=O)(=O)c2c(C)noc2C)c1	x	x	1	x	3.9
Cc1ccc(-c2cc(C(=O)O)c3cc(Br)ccc3n2)o1	12	1%	10	-24	-8.5
CCOC(=O)C1CCN(C(=O)c2ccc(Cl)c(S(=O)(=O)N3CCOCC3)c2)CC1	7	-1%	-5	-47	3.1
COc1ccc(CCNC(N)=S)cc1OC	2	-3%	-1	-36	-2.0
S=c1[nH]cc(-c2ccccc2)n1-c1cccc(Cl)c1	-8	2%	-5	-28	0.0
CC[N+](CC)(CC=C(C)C)CC(=O)OC	7	0%	7	x	-3.3
COc1ccc(-c2cc(C(F)(F)F)nc(SCC(=O)Nc3cc(C)on3)n2)cc1OC	-3	-2%	2	-63	-1.8
CCC(=O)N1c2ccc(S(=O)(=O)N3CCN(CC)CC3)cc2CC1C (stereo not given)	x	x	0	x	-0.7
CCn1c(SCC(=O)Nc2nccs2)nnc1-c1ccc(S(=O)(=O)N2CCCCCC2)cc1	-2	-6%	-3	-9	11
Cc1c(Br)c([N+](=O)[O-])nn1CC(=O)c1ccccc1	20	0%	-7	x	2.0
CC1(C)CC(=O)C/C(=N\NC(=O)CCc2ccc(S(=O)(=O)N3CCOCC3)cc2)C1	4	2%	-12	x	2.2
(list continues)
SMILES	Arbovirus anti	Mtb H37Rv	Mtb bLac sens	YopH inh	RecA intein inh	others
CSc1ccccc1NC(=O)c1cccnc1	2	-7%	-6	-21	-2.0
O=C(NCC1CCCO1)c1ccc(S(=O)(=O)N2CCCCC2)cc1 (stereo not given)	-4	5%	-2	-33	-5.4
O=C(CCC1CCCCC1)Nc1ccc(S(=O)(=O)Nc2nccs2)cc1	4	14%	78	-15	-0.7
COc1cccc2cc(C(=O)N3CCN(C/C=C/c4ccccc4)CC3)c(=O)oc12	3	2%	-12	-53	-3.4
O=[N+]([O-])c1cc(-c2nc3nc4ccccc4nc3n2CCc2ccccc2)cc([N+](=O)[O-])c1	-4	u	99	-26	-1.5
Cc1ccnc(NC(=O)c2oc3ccccc3c2C)c1	x	x	-6	x	1.9
CCN1C(=O)C(CC(=O)Nc2ccc(OC)cc2)N(Cc2cccnc2)C1=S (stereo not given)	10	-2%	-6	19	0.4
O=C1C2C3C=CC(C3)C2C(=O)N1CC1CCCO1 (stereo not given)	11	-7%	-11	-10	-0.4
O=S(=O)(c1ccccc1)c1ccc(NCc2ccco2)cc1	5	3%	70	-30	2.9
Cc1nn(Cc2ccc(F)cc2)c2sc(C(=O)Nc3ccc(N4CCOCC4)cc3N3CCOCC3)cc12	-6	6%	1	-26	3.2
COc1ccc(-c2cc(C(=O)NC3CCCC3)no2)cc1	x	x	6	x	-6.3
COCCNC(=O)c1n[nH]c2ccccc12	9	-4%	-2	x	-3.1
COc1ccc(N2CCN(/C(=N\S(=O)(=O)c3ccccc3)Nc3nc(C)cc(C)n3)CC2)cc1	15	-4%	-1	-42	-1.4
O=S(=O)(NCC1CCCO1)c1ccc(S(=O)(=O)N(Cc2ccc(F)cc2)Cc2ccco2)cc1 (stereo not given)	-1	-4%	-1	0	-0.4
O=C(N/N=C/c1ccccc1Br)C1CC1	-1	0%	7	x	-0.7
Cc1ccccc1OCC(=O)Nc1ccc(N2CCN(C)CC2)c(Cl)c1	x	x	1	x	-2.5
CC1(C)Cc2nc3nc(SCC(=O)NCCc4ccccc4)n(-c4ccccc4)c(=O)c3cc2CO1	2	-11%	-11	-18	1.2
O=C(CN1CCN(Cc2ccccc2)CC1)Nc1cccc(Br)c1	x	x	4	x	-0.2
Cc1[nH][nH]c(=O)c1C(c1ccc(Cl)cc1)c1c(C)[nH][nH]c1=O	x	x	-2	x	98*
COc1cc(C2C(C(C)=O)=C(O)C(=O)N2Cc2ccccc2)ccc1O (stereo not given)	x	x	1	x	-3.5
N#C/C=C1\n2c(nc3ccccc32)OC12CCCCC2	18	-3%	7	-24	0.0
COc1ccc(C(=O)O/N=C(\C)c2ccccc2)cc1	2	-1%	34	-26	1.5
Cc1cc(C)c(OCC(=O)OCC(=O)NC2CCC(C)CC2)c(C)c1 (stereo not given)	x	x	-3	x	0.2
Cc1cc(=O)oc2ccc(OCC(=O)O)cc12	6	-2%	-19	6	-1.5
Cn1cccc1C(=O)OCC(=O)Nc1ccc2c(c1)CCC2	0	-6%	5	13	-2.1
Next records
SMILES	Arbovirus anti	Mtb H37Rv	Mtb bLac sens	YopH inh	RecA intein inh	others
CCN(CCn1cccn1)Cc1ccccc1OCC(O)CN1CCc2ccccc2C1 (stereo not given)	-9	3%	3	x	4.9
Cc1nnc(SCC(=O)Nc2ncc3c(n2)CC(C)(C)CC3=O)s1	3	-2%	3	-1	-1.7
O=C(NCCCN1CCOCC1)NC12CC3CC(CC(C3)C1)C2	6	-6%	-7	-21	-0.6	Arbovirus anti repeat=2
Cc1ccc(-c2nc(CS(=O)CC(=O)N3CCN(c4ccccc4)CC3)c(C)o2)cc1 (stereo not given)	x	x	4	x	2.4
CCOC(=O)c1c(C)[nH]c(C)c1C(=O)CN1C(=O)NC(CC(C)C)C1=O (stereo not given)	3	-6%	-6	-27	1.0
Cc1cccc(NC(=O)C2CCN(C(=O)NCc3ccccc3)CC2)c1C	x	x	-6	x	1.3
CN(C)CCCN(C(=O)C1COc2ccccc2O1)c1nc2ccc(F)cc2s1 (stereo not given)	1	1%	1	x	0.6
Cc1ccc(S(=O)(=O)NC(=O)Nc2cc(C(C)(C)C)on2)cc1	x	-7%	-3	x	0.2
Cc1ccc(C(OCC(O)CNCc2ccc(F)cc2)c2ccccc2)cc1 (stereo not given)	x	x	51	x	3.4
Cc1ccc(C)c(OCC(O)CN2C(C)CCCC2C)c1 (stereo not given)	-6	6%	-16	2	1.1
CS(=O)(=O)N(CC(=O)NCc1ccco1)c1ccccc1Cl	-4	-11%	-2	-28	1.9
COc1ccc(OCC(=O)NNC(=O)CCc2ccccc2)cc1	2	4%	-3	x	-2.5
Cc1cc(C)c(S(=O)(=O)c2ccccc2C)c(Cl)n1	-5	0%	3	-32	1.8
C=CCn1c(-c2sccc2C)n[nH]c1=S	0	4%	-3	-19	1.9
Nc1nc(NCc2ccccc2)nc(Nc2cccc(F)c2)c1[N+](=O)[O-]	2	1%	-11	-1	-1.2
O=C(CCNC(=O)N1CC(=O)Nc2ccccc21)NCc1ccc(F)cc1	x	x	1	x	-2.1
CCOC(=O)N1CCN(C(=O)c2ccc3c(=O)n(Cc4ccc(Cl)cc4)c(=S)[nH]c3c2)CC1	-9	x	38	-29	0.1
C=CCN1C(=O)C(O)(CC(=O)c2ccco2)c2cc(Br)ccc21 (stereo not given)	-2	-1%	-1	x	0.5
Cc1cc(C)c2[nH]c3nc(SCC(=O)O)nnc3c2c1	x	x	-5	x	0.4
O=[N+]([O-])c1ccc(COc2cccnc2)cc1	-5	-5%	-2	x	-0.2
Cc1cccc(CN2CCN(c3ccc(Cl)cc3)CC2)c1	17	13%	-2	x	0.9
c1ccc(CCc2ccncc2)cc1	x	x	-1	x	0.8
CCCC1=NN2C(=N)/C(=C\c3cc(C)n(Cc4ccccc4)c3C)C(=O)N=C2S1	x	-17%	-3	x	-4.2

20 successive records out of the list so far:
SMILES	Arbovirus anti	Mtb H37Rv	Mtb bLac sens	YopH inh	RecA intein inh	others
Cc1ccc(-c2nc(CS(=O)CC(=O)N3CCN(c4ccccc4)CC3)c(C)o2)cc1 (stereo not given)	x	x	4	x	2.4
CCOC(=O)c1c(C)[nH]c(C)c1C(=O)CN1C(=O)NC(CC(C)C)C1=O (stereo not given)	3	-6%	-6	-27	1.0
Cc1cccc(NC(=O)C2CCN(C(=O)NCc3ccccc3)CC2)c1C	x	x	-6	x	1.3
CN(C)CCCN(C(=O)C1COc2ccccc2O1)c1nc2ccc(F)cc2s1 (stereo not given)	1	1%	1	x	0.6
Cc1ccc(S(=O)(=O)NC(=O)Nc2cc(C(C)(C)C)on2)cc1	x	-7%	-3	x	0.2
Cc1ccc(C(OCC(O)CNCc2ccc(F)cc2)c2ccccc2)cc1 (stereo not given)	x	x	51	x	3.4
Cc1ccc(C)c(OCC(O)CN2C(C)CCCC2C)c1 (stereo not given)	-6	6%	-16	2	1.1
CS(=O)(=O)N(CC(=O)NCc1ccco1)c1ccccc1Cl	-4	-11%	-2	-28	1.9
COc1ccc(OCC(=O)NNC(=O)CCc2ccccc2)cc1	2	4%	-3	x	-2.5
Cc1cc(C)c(S(=O)(=O)c2ccccc2C)c(Cl)n1	-5	0%	3	-32	1.8
C=CCn1c(-c2sccc2C)n[nH]c1=S	0	4%	-3	-19	1.9
Nc1nc(NCc2ccccc2)nc(Nc2cccc(F)c2)c1[N+](=O)[O-]	2	1%	-11	-1	-1.2
O=C(CCNC(=O)N1CC(=O)Nc2ccccc21)NCc1ccc(F)cc1	x	x	1	x	-2.1
CCOC(=O)N1CCN(C(=O)c2ccc3c(=O)n(Cc4ccc(Cl)cc4)c(=S)[nH]c3c2)CC1	-9	x	38	-29	0.1
C=CCN1C(=O)C(O)(CC(=O)c2ccco2)c2cc(Br)ccc21 (stereo not given)	-2	-1%	-1	x	0.5
Cc1cc(C)c2[nH]c3nc(SCC(=O)O)nnc3c2c1	x	x	-5	x	0.4
O=[N+]([O-])c1ccc(COc2cccnc2)cc1	-5	-5%	-2	x	-0.2
Cc1cccc(CN2CCN(c3ccc(Cl)cc3)CC2)c1	17	13%	-2	x	0.9
c1ccc(CCc2ccncc2)cc1	x	x	-1	x	0.8
CCCC1=NN2C(=N)/C(=C\c3cc(C)n(Cc4ccccc4)c3C)C(=O)N=C2S1	x	-17%	-3	x	-4.2

Source: PubChem (several laboratories)
